From PubChem BioAssay
Calb biofilm kill: mixtures killing C. albicans biofilm; C. albicans biofilm persisters + clotrimazole, fluorescence viability; primary screen in compound mixtures of four per well; inhibition, % at 7.6 µM; 0.02% of 120,000 active; AID 1242;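 active = inhibition above 30.3% in the primary screen of four-compound pools, then above 30% when the compound was retested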;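 note: compounds exposed to preformed 24 h biofilms for 48 h; the number belongs to the whole pool; some results filed as inactive read as strong as hits; inactives centre near 12; 0% = biofilm with clotrimazole alone and 100% = kill control; retested singly at about 60 µM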
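Incubation: 24 h biofilm formation, then 48 h compound exposure, 37 °C | Material: C. albicans biofilms | Buffer or medium: RPMI/MOPS medium, pH 7.0 | Measured by: 2-h Alamar Blue fluorescence, 535/590 nm excitation/emission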
Starred values were filed as active, the others as inactive. This is a subset; rates above refer to the full screens.

SMILES	Calb biofilm kill
Cc1nc([N+](=O)[O-])c(SCC(N)=O)n1Cc1ccccc1	8
CC(C)(C)c1nnc(NC(=O)Cc2ccc(Br)cc2)s1	14
CCS(=O)(=O)N1CCN(c2ncnc3sc(C)c(C)c23)CC1	11
COc1ccc(C)cc1NC(=O)COC(=O)c1ccc([N+](=O)[O-])o1	8
CCCCNC(=O)NS(=O)(=O)c1ccc(C)cc1	1
O=C(NCC1CCOCC1)c1ccc(OC2CCN(Cc3ccccn3)CC2)cc1	-1
Cc1cc(C)n2c(SCC(=O)NC3CCCCC3)nnc2n1	0
CCOc1ccc(N=Nc2cc(C(C)C)ccc2O)cc1	12
COc1ccc(/C=C2\Oc3cc(OC(=O)N4CCOCC4)ccc3C2=O)c(OC)c1	15
O=C(c1ccccc1)C1Oc2ccccc2C2CC(c3cccs3)=NN12 (stereo not given)	4
N=c1c2c(n(Cc3ccc(F)cc3)c3c1CCC3)CCCC2	5
C=CCN(C(=O)c1ccc(Cl)cc1)c1ccccc1C(=O)NCC(=O)O	29
COc1ccc(/C=C2/SC(=O)N(CCC(=O)Nc3ccc(S(=O)(=O)Nc4nccs4)cc3)C2=O)cc1	17
O=C(NC(=S)N1CCN(Cc2ccccc2)CC1)c1ccco1	12
O=C(CCc1ccccc1)NCCC1=CCCCC1	14
CCCCc1nnc(NC(=O)C2CC(=O)N(c3ccc(C)cc3)C2)s1 (stereo not given)	19
COc1cc(/C=C/C(=O)Nc2ccc3[nH]c(=O)[nH]c3c2)cc(OC)c1OC	12
Cc1ccccc1C(=O)NNC(=O)CSc1nnc(-c2ccncc2)n1-c1ccccc1	19
Cc1sc(NC(=O)/C=C/c2ccco2)c(C(=O)O)c1C	15
CCn1nc(C)c(CN2CCCC(CO)(Cc3ccccc3)C2)c1C (stereo not given)	5
Cc1nc(SCc2ccc(C(=O)O)cc2)nc2c1CCCC2	16
Cc1c(Cc2ccccc2)c(=O)oc2cc(OCC(N)=O)ccc12	22
Cc1ccc(OCCn2c(Br)nc3c2c(=O)n(C)c(=O)n3C)cc1	3
COc1cccc(-n2nnc3c(=O)n(CC(=O)OCc4ccccc4)cnc32)c1	17
CN(C)C(CNC(=O)Cc1cccc(C(F)(F)F)c1)c1ccco1 (stereo not given)	10

Later entries
SMILES	Calb biofilm kill
C=CCOc1ccc(CN(C)CC(=O)Nc2ccc3c(c2)CCC3)cc1	8
Cc1ccc(-c2cc(C(=O)Nc3ccc(S(=O)(=O)Nc4nccs4)cc3)c3ccccc3n2)c(C)c1	20
Cc1cccc(OCc2nnc(NC(=O)Cc3cccs3)s2)c1	10
COc1cccc(NC(=S)N(CCc2c(C)[nH]c3ccccc23)Cc2cccs2)c1	4
Cc1cccc(NCC(=O)N/N=C/c2ccc(Br)cc2)c1	13
COc1ccc(N/C(=C/[N+](=O)[O-])SC)cc1	17
CC(C)Cn1c2c(c(=O)[nH]c1=O)C(NS(=O)(=O)c1ccc(Cl)cc1)(C(F)(F)F)C(=O)N2 (stereo not given)	13
CC(C)CCN1CCN(Cc2cccc(-n3cccn3)c2)CC1CCO (stereo not given)	27
Cc1ccc(C)c(NC(=O)CSc2nnc(-c3ccncc3)o2)c1	27
O=C(NCCc1ccccc1)Nc1ccc2c(c1)OCO2	-2
O=C1CCc2cc(S(=O)(=O)NC(Cc3ccccc3)C(=O)N3CCN(c4ccccn4)CC3)ccc2N1 (stereo not given)	4
Cc1nc2ccccc2c(=O)n1NC(=O)C1CC1C (stereo not given)	10
CCN(CC)S(=O)(=O)c1ccc(OC)c(NC(=O)c2ccc3c(c2)OCO3)c1	14
CN(C)/C=C(\C=O)c1c(Cl)cccc1Cl	16
COc1ccccc1N(C)S(=O)(=O)c1ccc(C(=O)OCC(=O)N2CCCCCC2)cc1	9
CC(C)CN(C(=O)CN1CCN(c2ccccc2F)CC1)c1c(N)n(CC(C)C)c(=O)[nH]c1=O	17
O=[N+]([O-])c1ccc2c(c1)nc1n2CCN(c2ccccc2)C1	22
O=C(OCCOc1ccc(Br)cc1)c1ccc(Cl)nc1	14
Cc1cc(C)n(-c2cc(C(C)(C)C)nc3c(-c4ccccc4)cnn23)n1	19
CCC1(c2ccc(F)cc2)NC(=O)N(CC(=O)Nc2ccc(C)c(S(=O)(=O)N3CCOCC3)c2)C1=O (stereo not given)	15
CC(=O)Nc1ccc(NS(=O)(=O)c2ccc3[nH]c(=O)[nH]c3c2)cc1	1
O=C(NNc1ccccc1[N+](=O)[O-])Nc1cccc(Cl)c1	9
Cc1ccc(-c2nc3ccccc3[nH]2)cc1NC(=O)c1sc2cc(Cl)ccc2c1Cl	16
CCC1(CC)NC(=O)N(CC(=O)OCC(=O)NC(=O)c2ccccc2)C1=O	1
O=C(O)c1cccc(N=NN2CCOCC2)c1	11

Next section.
SMILES	Calb biofilm kill
O=C(CN1CCOCC1)N/N=C/C=C/c1ccccc1	12
Cc1cccc(NC(=O)CN2CCSc3ccccc32)c1	14
CC(=O)c1c(C)[nH]c(=S)c(C#N)c1-c1ccc(Cl)cc1	21
Cc1cc(C)nc(N/N=C/C2=C(N3CCOCC3)C(=C\c3ccc(Cl)cc3)/CC2)n1	11
Cc1nc(CNS(=O)(=O)c2ccccc2F)cs1	-3
Cc1cc(C=C2C(=O)c3ccccc3C2=O)c(C)n1C	16
Cc1ccc(N(CC(O)Cn2nc(C)cc2C)S(=O)(=O)c2ccc3ccccc3c2)cc1 (stereo not given)	15
COc1ccc(N2CC(NC(=O)N3CCc4ccccc43)CC2=O)cc1OC (stereo not given)	4
COc1n[nH]c(C(=O)NCc2ccccc2)c1[N+](=O)[O-]	8
CN1CCc2ccccc2C1Cc1ccccc1NC(=O)c1sc2ccccc2c1Cl (stereo not given)	6
Oc1cccc2cnccc12	27
CCCOCc1ccc(O)c2ncccc12	24
COc1ccc(C(=O)Nc2cc(OC)c(Cl)cc2OC)cc1	-3
C/C(=N\NC(=O)c1ccc(NS(=O)(=O)c2cccs2)cc1)c1ccc(Cl)cc1	17
Cc1ccc(N=C2CCCCCN2C)c(C#N)c1	13
CCC(Sc1nncn1C)C(=O)Nc1cc(C)on1 (stereo not given)	9
CN(C)C(=O)CSc1n[nH]c(=O)[nH]c1=O	7
O=C(NCC(=O)N(Cc1cccs1)C(C(=O)NC1CCCCC1)c1cccnc1)c1ccco1 (stereo not given)	20
CCC(C)NC(=O)Cn1nc(C(F)(F)F)c2c1CCC2 (stereo not given)	22
CCC(=O)Nc1ccc(C(=O)NNC(=O)C(c2ccccc2)c2ccccc2)cc1	7
NC(=O)CC(NC(=O)c1ccccc1)c1ccc(NCCc2ccc(F)cc2)c([N+](=O)[O-])c1 (stereo not given)	12
CC1CCCC(C)N1C(=O)C1CCCCC1 (stereo not given)	4
O=C(CSc1nc2ccccc2[nH]1)N=Nc1c(O)[nH]c2ccccc12	7
Cn1cnnc1SCC(=O)NN1C(=O)NC(C)(c2ccccc2)C1=O (stereo not given)	21
Cc1cc(C)nc(NC(=O)c2c(-c3ccccc3Cl)noc2C)c1	9

More compounds follow.
SMILES	Calb biofilm kill
CC/C(=N/Nc1ccccc1Cl)c1cnnc(-c2ccccc2)n1	15
c1ccc(CC2CCN(c3ncnc4sccc34)CC2)cc1	14
CC(C)CCN1NC2(CCCC(C)C2)NC1=S (stereo not given)	11
O=C(CNC(=O)OCc1ccccc1)NC1CCCCCC1	1
CC1Cc2ccccc2N1C(=S)NC(=O)c1ccc(Cl)cc1Cl (stereo not given)	19
O=C(CCc1ccccc1)NC(=S)Nc1cccc(Br)c1	12
CN(c1ccccc1)S(=O)(=O)c1ccc(Cl)c(C(=O)NCCc2c[nH]c3ccccc23)c1	3
O=C(OCC(=O)c1ccc[nH]1)c1ccc2ccccc2n1	19
CC(O)[C@H]1CN=C(N)N1CCCCC1CCCCC1 (stereo not given in full)	17
CC(C)c1ccccc1OCCNC(=O)c1cccnc1	8
CCC(=O)Nc1c(S(=O)(=O)c2ccccc2)c2nc3ccccc3nc2n1C(C)c1ccccc1 (stereo not given)	9
COC(=O)c1ccccc1N1CCS(=O)(=O)CC1	15
O=C(O)CCc1nc2cc3ccccc3cc2[nH]1	10
O=C1COc2ccc(C(=O)CSc3nnc(NCc4ccccc4)s3)cc2N1	24
Clc1ccccc1/C=C/c1nc(-c2ccccn2)no1	16
CCc1ccccc1-n1nnnc1-c1cnccc1C(F)(F)F	18
C=C(C)CN(CC)C(=O)CCc1nnc(CCc2c[nH]c3ccccc23)o1	10
Cc1ccc(-n2c(N)c(C(=O)Nc3c(C)n(C)n(-c4ccccc4)c3=O)c3nc4ccccc4nc32)cc1C	-2
CCn1c(=O)cc(OCC(=O)NCCc2cccc(C)c2)c2ccccc21	31
Cc1ccc(Cl)c(NC(=O)COC(=O)CNS(=O)(=O)/C=C/c2ccccc2)c1Cl	11
COc1ccc(CCNC(=O)COc2ccc(N(C)S(=O)(=O)c3ccc(Cl)cc3)cc2)cc1	21
COc1cccc(NC(=O)CN(c2ccc3c(c2)OCO3)S(C)(=O)=O)c1	-7
S=C(NCCOCCOCCNC(=S)Nc1ccccc1)Nc1ccccc1	10
Cc1ccccc1NC(=O)Cn1c(=O)n(-c2ccc(CC(=O)NCC3CCCO3)cc2)c(=O)c2ccccc21 (stereo not given)	5
Cc1ccc(-n2c(=S)[nH]c3nc4c(cc3c2=O)COC(C)(C)C4)cc1	11

A different layout for 4 compounds above:
Molecule: O=C(OCC(=O)c1ccc[nH]1)c1ccc2ccccc2n1
- Calb biofilm kill: 19
Molecule: CC(O)[C@H]1CN=C(N)N1CCCCC1CCCCC1 (stereo not given in full)
- Calb biofilm kill: 17
Molecule: CC(C)c1ccccc1OCCNC(=O)c1cccnc1
- Calb biofilm kill: 8
Molecule: CCC(=O)Nc1c(S(=O)(=O)c2ccccc2)c2nc3ccccc3nc2n1C(C)c1ccccc1 (stereo not given)
- Calb biofilm kill: 9

Next records.
SMILES	Calb biofilm kill
C=CCCC1(C)C(=O)N(c2ccccc2)c2ccccc21 (stereo not given)	3
Cc1ccc(N2CCN(C(=O)Nc3cccc([N+](=O)[O-])c3)CC2C)cc1 (stereo not given)	13
COc1cccc(/C(C)=N/NC(=O)c2cc(-c3cccnc3)nc3ccccc23)c1	9
COc1ccc(NC(=O)CCC(=O)c2cccs2)cc1S(=O)(=O)Nc1ccccc1Cl	12
COc1ccc(N(CC(=O)NCC2CCCO2)C(=O)CCC(=O)Nc2nccs2)cc1 (stereo not given)	19
COC(=O)/C(C#N)=C/c1c(Oc2cc(C)cc(C)c2)nc2ccccn2c1=O	25
COc1ccc(CCNc2ccc(C(CC(N)=O)NC(=O)Cc3ccc(Br)cc3)cc2[N+](=O)[O-])cc1 (stereo not given)	24
CC(=O)Nc1ccc(-c2csc(Nc3ncccn3)n2)cc1	3
O=C(O)c1cccc(S(=O)(=O)Nc2cccc(S(=O)(=O)N3CCCCCC3)c2)c1	12
Cc1ccc(NC(=O)CCC(=O)NNC(=O)CCc2ccccc2)c(C)c1	3
CN(C)CCCN(Cc1ccccc1)C(=S)Nc1ccc(OC(F)F)cc1	16
CCN1C(=O)/C(=C\N(C(C)=O)c2ccccc2)OC1=S	15
C=CCNC(=S)N/N=C/c1ccc(N(CC)Cc2ccccc2)cc1	7
CC(=O)Nc1ccc(/C=N\NC(=O)CNS(=O)(=O)c2ccc([N+](=O)[O-])cc2)cc1	-4
O=C(COC(=O)c1ccc([N+](=O)[O-])o1)Nc1cccc2ccccc12	8
CC(C)N1CCN(Cc2ccoc2)CC1CCO (stereo not given)	28
CC(CCc1ccccc1)NC(=O)C1CCN(S(=O)(=O)N2CCOCC2)CC1 (stereo not given)	12
CCCCCCC(=O)N/N=C/c1ccco1	14
COc1ccc(CNC(=S)N/N=C/c2ccncc2)cc1	16
CC/C(=N/Nc1ccc(Cl)cc1)c1cnnc(SC)n1	6
CC(C)/C=C1\CC/C(=C\c2cccnc2)C1=O	10
N#Cc1c(/N=C/c2cccnc2)sc2c1CCCC2	17
O=C(NCCCn1ccnc1)c1ccc(N2CCCCCC2)c([N+](=O)[O-])c1	8
Cc1cccc(NN=C2c3ccccc3-c3ccccc32)c1	6
CC(=O)c1c(C)oc2ccc(NS(=O)(=O)c3cccs3)cc12	30
Cc1ccc(OCC(=O)Nn2cnnc2)c(Br)c1	12

By substructure, the entries above with a Cl atom (20)
SMILES	Calb biofilm kill
C=CCN(C(=O)c1ccc(Cl)cc1)c1ccccc1C(=O)NCC(=O)O	29
CC(C)Cn1c2c(c(=O)[nH]c1=O)C(NS(=O)(=O)c1ccc(Cl)cc1)(C(F)(F)F)C(=O)N2 (stereo not given)	13
CN(C)/C=C(\C=O)c1c(Cl)cccc1Cl	16
O=C(OCCOc1ccc(Br)cc1)c1ccc(Cl)nc1	14
O=C(NNc1ccccc1[N+](=O)[O-])Nc1cccc(Cl)c1	9
Cc1ccc(-c2nc3ccccc3[nH]2)cc1NC(=O)c1sc2cc(Cl)ccc2c1Cl	16
CC(=O)c1c(C)[nH]c(=S)c(C#N)c1-c1ccc(Cl)cc1	21
Cc1cc(C)nc(N/N=C/C2=C(N3CCOCC3)C(=C\c3ccc(Cl)cc3)/CC2)n1	11
CN1CCc2ccccc2C1Cc1ccccc1NC(=O)c1sc2ccccc2c1Cl (stereo not given)	6
COc1ccc(C(=O)Nc2cc(OC)c(Cl)cc2OC)cc1	-3
C/C(=N\NC(=O)c1ccc(NS(=O)(=O)c2cccs2)cc1)c1ccc(Cl)cc1	17
Cc1cc(C)nc(NC(=O)c2c(-c3ccccc3Cl)noc2C)c1	9
CC/C(=N/Nc1ccccc1Cl)c1cnnc(-c2ccccc2)n1	15
CC1Cc2ccccc2N1C(=S)NC(=O)c1ccc(Cl)cc1Cl (stereo not given)	19
CN(c1ccccc1)S(=O)(=O)c1ccc(Cl)c(C(=O)NCCc2c[nH]c3ccccc23)c1	3
Clc1ccccc1/C=C/c1nc(-c2ccccn2)no1	16
Cc1ccc(Cl)c(NC(=O)COC(=O)CNS(=O)(=O)/C=C/c2ccccc2)c1Cl	11
COc1ccc(CCNC(=O)COc2ccc(N(C)S(=O)(=O)c3ccc(Cl)cc3)cc2)cc1	21
COc1ccc(NC(=O)CCC(=O)c2cccs2)cc1S(=O)(=O)Nc1ccccc1Cl	12
CC/C(=N/Nc1ccc(Cl)cc1)c1cnnc(SC)n1	6
